VDR inhibitor: vitamin D3 receptor (human) inhibition; P11473; VDR-SRC2-3 peptide fluorescence polarization, 2 h; Potency, µM, without a hit: max response, negative = inhibition, most hits filed as inhibitors; 400,000 compounds, 0.93% hits; AID 504847; active = well fitted inhibition curve with a large enough effect; inconclusive = small, poorly fitted or top-dose-only effect, or another doubt; inactive = no such curve, though single readings can be large or run the other way; note: series mostly up to about 120 µM
Target sequence (P11473 whole entry, looked up): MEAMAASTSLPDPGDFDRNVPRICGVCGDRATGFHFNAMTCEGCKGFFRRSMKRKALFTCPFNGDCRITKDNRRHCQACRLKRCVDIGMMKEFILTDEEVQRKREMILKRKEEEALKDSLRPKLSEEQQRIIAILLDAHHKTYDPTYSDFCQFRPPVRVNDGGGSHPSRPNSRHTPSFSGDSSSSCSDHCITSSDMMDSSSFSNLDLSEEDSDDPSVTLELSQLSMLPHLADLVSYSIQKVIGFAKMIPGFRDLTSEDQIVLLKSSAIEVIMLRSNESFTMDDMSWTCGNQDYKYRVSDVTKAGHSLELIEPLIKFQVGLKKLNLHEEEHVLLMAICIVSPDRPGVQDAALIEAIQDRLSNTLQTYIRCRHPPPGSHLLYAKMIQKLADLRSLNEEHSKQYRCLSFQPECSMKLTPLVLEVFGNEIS
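Inhibition of the VDR/SRC2-3 peptide interaction is quantified by fluorescence polarization. Compounds (23 nl, pintool) incubate with the reagents for 2 hours at ambient room temperature.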
* = called active by the depositor; ? = inconclusive. % is set by controls: 0 for no effect and ±100 for the full control effect; potency is the fitted concentration of half-maximal effect. A portion of the library; the hit share may differ from the screen's.

VDR inhibitor,smiles
-21%,CC(C)(C)c1ccc(OCC(=O)Nc2ccc3c4c(cccc24)C(=O)NC3=O)cc1
1%,Cc1ccccc1OCC(=O)NS(=O)(=O)c1ccc(Cl)cc1
-7%,COc1cc(NC(=O)Cn2c(=O)n(CC(=O)NCCc3ccc(OC)c(OC)c3)c(=O)c3sccc32)cc(OC)c1
3%,CCN(c1ccccc1)c1nc(=O)c2cccnc2s1
6%,Cc1ccc(OCCC(=O)OCC(=O)Nc2c(C)nn(-c3ccccc3)c2C)cc1
-6%,Cn1c(N)c(C(=O)CSc2nnc3n2CCCCC3)c(=O)n(C)c1=O
-2%,COC(=O)c1c(NS(=O)(=O)Cc2ccccc2)sc2c1CCCC2
-2%,COc1ccc(C)cc1S(=O)(=O)NC(C)C(=O)Nc1ccc2c(c1)OCO2 (stereo unspecified)
11%,O=C(NC1CCCCC1)c1ccc(S(=O)(=O)N2CCCCC2)cc1
2%,NS(=O)(=O)c1ccc(NC(=O)COC(=O)C2(c3ccccc3F)CCCC2)cc1
-7%,COC(=O)c1cc(NC(=O)c2ccc(F)cc2)cc(C(=O)OC)c1
-18%,CC(=O)Nc1nc(C)c(S(N)(=O)=O)s1
14%,CCOC(=O)N1CCN(c2cc(=O)n(C3CCCCC3)c(=O)[nH]2)CC1
-10%,O=C(CSc1nnc(Nc2ccccc2F)s1)NC(=O)CN1CCCC1=O
3%,Cc1ccc(Cl)cc1NC(=O)C1CC(=O)N(C(C)C)C1 (stereo unspecified)

New compounds follow.
VDR inhibitor,smiles
-2%,O=C(N/N=C/c1cccs1)c1cc(-c2ccc(Cl)s2)[nH]n1
0%,CCCC(=O)N(c1ccc(OCC)cc1)S(=O)(=O)c1ccc2c3c(cccc13)C(=O)N2C
17%,CCCCn1c(SCc2nc3ccccc3s2)nc2cc(S(N)(=O)=O)ccc21
?,O=C1CSC(c2cccnc2)N1CCc1ccccn1 (stereo unspecified)
-14%,COc1ccc2c(c1OC)CN(C)CCc1cc3c(cc1C(=O)C2)OCO3
-3%,CC(=O)c1ccc(NC(=O)c2cn(-c3ccccc3)nc2-c2ccc(Br)cc2)cc1
-12%,OC(COc1ccc(Cl)cc1Cl)CN1CCc2ccccc2C1 (stereo unspecified)
4%,Clc1ccc(OCc2nnnn2-c2ccccc2)cc1
-10%,COc1ccc(Nc2nnc(-c3ccc(C)c(S(=O)(=O)N4CCOCC4)c3)c3ccccc23)cc1
-10%,Brc1ccccc1C1=Nn2c(nnc2-c2ccccc2)SC1
-7%,O=C(O)c1ccc(Nc2nc3ccccc3c3nncn23)cc1
-2%,C=COCCNC(=O)C(=O)NCC(C)C
-2%,CNCCCCc1cnc(C)c2[nH]c3ccccc3c12
-22%,CCN(Cc1ccccc1)C(=O)C1CCN(Cc2ccc(OC)c(OC)c2OC)CC1
?,CN(C)c1nc(Nc2ccc(Cl)c(Cl)c2)nc(N(C)C)n1

Four entries from above in a different format.
CNCCCCc1cnc(C)c2[nH]c3ccccc3c12
  VDR inhibitor: -2%

Cc1ccccc1OCC(=O)NS(=O)(=O)c1ccc(Cl)cc1
  VDR inhibitor: 1%

CCN(Cc1ccccc1)C(=O)C1CCN(Cc2ccc(OC)c(OC)c2OC)CC1
  VDR inhibitor: -22%

Cc1ccc(Cl)cc1NC(=O)C1CC(=O)N(C(C)C)C1 (stereo unspecified)
  VDR inhibitor: 3%

The listing continues.
VDR inhibitor,smiles
1%,COCCCn1c(=N)c(C(=O)NC2CCCC2)cc2c(=O)n3ccccc3nc21
1%,O=C(CN1C(=O)c2cccc3cccc1c23)Nc1ccc2c(c1)OCO2
7%,NNC(=O)CN1CCCc2ccccc21
-7%,Cc1nn(-c2ccc(Br)cc2)c(=O)c2ccccc12
-7%,O=c1c2cnn(-c3ccccc3)c2nnn1/N=C/c1cccnc1
-20%,CC(=O)NCCn1c(C)cc2ccccc21
5%,CCOc1ccc(OCC)c(NC(=O)C2CCN(c3ncccn3)CC2)c1
-22%,Cc1cc(C)n(CCC(=O)N2c3ccccc3CC2C)n1 (stereo unspecified)
-13%,Cc1ccc(CNC(=O)C2CC(c3cccc(F)c3)=NO2)cc1 (stereo unspecified)
10%,Cc1ccccc1NC(=O)Cn1cnc2c(oc3nc4c(cc32)CCCC4)c1=O
-6%,Cc1cc(=O)oc(C)c1C(=O)NCC(C)NC(=O)c1c(C)cc(=O)oc1C (stereo unspecified)
3%,Cc1c(N=Cc2c(O)n(C)c(=O)c3ccccc23)c(=O)n(-c2ccccc2)n1C
-5%,CC1(c2ccccc2)NC(=O)N(CC(=O)Nc2cccc(C#N)c2)C1=O (stereo unspecified)
4%,COc1ccc(Cc2nc3ccc(C(=O)NCCc4ccc(Cl)cc4)cc3o2)cc1
5%,Cc1ccc(S(=O)(=O)Nc2cccc(Cl)c2)cc1NC(=O)c1cccnc1

Later entries.
VDR inhibitor,smiles
7%,CCN(Cc1ccccc1)S(=O)(=O)c1cc2c3c(c1)CCN3C(=O)CC2
?,CCOc1cc(S(=O)(=O)N2CCCC2)ccc1Cl
-6%,CCC(=O)N1CCc2cc(Br)cc(S(=O)(=O)CC(=O)OC)c21
-15%,O=C(NC1CCCCC1)C(=O)c1c[nH]c2ccccc12
-10%,Cc1ccc(C(C(=O)NCc2ccco2)N(C(=O)CNC(=O)c2cccs2)c2c(C)cccc2C)cc1 (stereo unspecified)
6%,Cn1cccc1C(=O)N1CCC2(CCN(C(=O)Nc3cccc(F)c3)CC2)CC1
4%,Nc1ccc(Nc2nc(-c3ccncc3)cs2)cc1
2%,CCC(C)c1ccccc1NC(=O)COC(=O)C1=NN(c2ccccc2)C(=O)CC1 (stereo unspecified)
11%,Cn1c(SCc2nc3ccccc3[nH]2)nnc1-c1cccnc1
-8%,Cc1cc(C)c(-c2csc(NC(=O)c3cc([N+](=O)[O-])ccc3N3CCOCC3)n2)c(C)c1
15%,C/C(Sc1nnc(Cc2ccccc2)o1)=C(/O)c1ccccc1
11%,CCOc1ccc(NC(=O)CN(C)C(=O)c2ccc3[nH]c4c(c3c2)CC(C)CC4)cc1OCC (stereo unspecified)
-12%,CC1CCC(NC(=O)CN2CCC(n3nnc4cc(F)ccc43)CC2)CC1 (stereo unspecified)
9%,O=S(=O)(Nc1ccc(-c2ccc(N3CCCC3)nn2)cc1)c1ccc(OC(F)(F)F)cc1
4%,COCCNC(=O)C(c1cccnc1)N(Cc1ccccc1)C(=O)Cn1nnc2ccccc21 (stereo unspecified)

Additional results
VDR inhibitor,smiles
-2%,CCOc1ccc(N2CC(NC(=O)c3ccc(S(=O)(=O)N4CCCC4)cc3)CC2=O)cc1 (stereo unspecified)
-6%,COc1ccc(Br)cc1C(=O)NC(=S)Nc1ccc(CN2CCOCC2)cc1
0%,COc1ccc(C(=O)c2ccc([N+](=O)[O-])cc2Cl)cc1
-18%,CC(C)Oc1ccc(CNC(=O)Cn2ccc3cc(S(=O)(=O)N4CCCC4)ccc32)cc1
-9%,Cc1[nH]c2ccc(F)cc2c1CCN(Cc1cccnc1)C(=S)Nc1ccc(F)cc1
-10%,CCOC(=O)[C@H]1[C@H]2COc3ccc(OC)cc3[C@@H]2N2C(=O)CN(Cc3ccco3)C(=O)[C@@]12C
-7%,CCc1ccc2oc(-c3ccc(C)c(NC(=O)c4cc([N+](=O)[O-])ccc4N4CCOCC4)c3)nc2c1
?,O=c1c(O)c(-c2ccccc2)oc2ccc3occc3c12
11%,NC(=O)NC(=O)COC(=O)CC12CC3CC(CC(C3)C1)C2
-10%,N#Cc1cn(-c2ccccc2)nc1-c1cc2ccccc2oc1=O
-19%,CCOC(=O)COc1ccc2c(=O)cc(-c3ccccc3)oc2c1
4%,O=C(OCC(=O)N1CCCCC1)c1c[nH]c2ccccc12
-13%,O=C(Cc1ccccc1)NCC(=O)OCc1ccc([N+](=O)[O-])cc1
-4%,COc1ccc2ncc3c(-c4ccccc4)nn(-c4ccc(C)c(C)c4)c3c2c1
?,COC(=O)C1=C(C)NC(C)=C(C(=O)OC)C1c1ccc(-c2cccc(Cl)c2Cl)o1

More compounds follow.
VDR inhibitor,smiles
-7%,COc1ccc(C(=O)C2CCCN(C/C=C/c3ccccc3OC)C2)c(OC)c1 (stereo unspecified)
-21%,CC(=O)c1ccc(NC(=O)C2C3C=CC(C3=C(c3ccccc3)c3ccccc3)C2C(=O)O)cc1 (stereo unspecified)
4%,COc1ccc(C(CC(=O)O)NC(=O)Nc2ccccc2)cc1OC (stereo unspecified)
-10%,Cc1cccc(N=C2NC(=O)/C(=C\c3cccs3)S2)c1
6%,Cc1cc(C)c2sc(N3CCN(C(=O)C4CC4)CC3)nc2c1
-4%,CC1(c2cccc(Br)c2)NC(=O)N(CC(=O)N2CCc3ccccc32)C1=O (stereo unspecified)
-10%,CCOC(=O)c1scc(-c2ccccc2)c1S(=O)(=O)Nc1cc(OC)cc(OC)c1
21%,O=C(NCc1ccccn1)Nc1cc(Cl)ccc1Cl
4%,O=C(Nc1cccc(NC(=O)c2ccc([N+](=O)[O-])o2)c1)c1ccco1
-23%,c1ccc2c(c1)Cc1ccccc1O2
-8%,CC(=O)Nc1ccc(-c2nnc(SCc3c(C)cc(C)cc3C)n2C)cc1
-7%,COc1ccc(N(Cc2ccccc2)C(=O)CSc2nnc(Cn3nnc4ccccc43)o2)cc1
-5%,CC(C)(C)NC(=O)[C@H]1CC[C@H]2[C@@H]3CC[C@H]4NC(=O)C=C[C@]4(C)[C@H]3CC[C@]12C
11%,CC1(C)Cc2nc3oc4c(NCc5ccccc5)ncnc4c3cc2CO1
-19%,CC1(C)CC(=O)C2=C(C1)NC(=O)NC2c1ccc(Cl)cc1 (stereo unspecified)

Seven records drawn at random from the list so far:
VDR inhibitor,smiles
3%,Cc1c(N=Cc2c(O)n(C)c(=O)c3ccccc23)c(=O)n(-c2ccccc2)n1C
7%,NNC(=O)CN1CCCc2ccccc21
-6%,Cn1c(N)c(C(=O)CSc2nnc3n2CCCCC3)c(=O)n(C)c1=O
4%,O=C(OCC(=O)N1CCCCC1)c1c[nH]c2ccccc12
1%,COCCCn1c(=N)c(C(=O)NC2CCCC2)cc2c(=O)n3ccccc3nc21
11%,CCOc1ccc(NC(=O)CN(C)C(=O)c2ccc3[nH]c4c(c3c2)CC(C)CC4)cc1OCC (stereo unspecified)
0%,COc1ccc(C(=O)c2ccc([N+](=O)[O-])cc2Cl)cc1

The list continues:
VDR inhibitor,smiles
-15%,Cc1c(C(=O)N2CCCCC2)oc2ccc(Br)cc12
-14%,Cc1cc(C)n2nc(S(=O)(=O)N(CC(C)C)CC(C)C)nc2n1
-1%,c1ccc(C2=NOC(c3nnc(-c4ccccc4)o3)C2)cc1 (stereo unspecified)
7%,COc1ccccc1CNC(=O)c1ccccc1C(=O)NC(C)(C)C(=O)NCc1ccccc1OC
-4%,Cc1nn(C)c2c1c(-c1ccccc1)cc(=O)n2Cc1ccccc1F
-11%,CC(=O)Nc1ccc(NC(=O)C2CCC(CNS(=O)(=O)c3cccc4nsnc34)CC2)cc1 (stereo unspecified)
-2%,C[C@H](NC(=O)c1nc[nH]c1C(=O)OCc1ccccc1)c1ccccc1
-27%,CCOC(=O)C1=C(N)OC2=C(C(=O)CC(C)(C)C2)C1c1cc(CSc2nnnn2C)cs1 (stereo unspecified)
9%,CCCCCCC(C)n1[nH]c(=O)cc1N (stereo unspecified)
-6%,O=C(CSc1nc2ccccc2o1)N1N=C(c2cccs2)CC1c1ccc(F)cc1 (stereo unspecified)
0%,COc1cc(/C=C(\NC(=O)c2ccccc2)C(=O)Nc2cccc(O)c2)c([N+](=O)[O-])cc1OC
-2%,CN1CCN(c2nc(C(N)=O)cc(-c3ccccc3)n2)CC1
0%,Cc1ccc(C)c(NC(=O)c2nc(S(C)(=O)=O)ncc2N(Cc2ccc(C(C)(C)C)cc2)Cc2ccco2)c1
12%,CCc1ccc(OCC(=O)Oc2ccc([N+](=O)[O-])cc2)cc1
-9%,COc1ccc(CNC(=O)C(=O)NC2CC(C)(C)NC(C)(C)C2)cc1

Remaining list, next part.
VDR inhibitor,smiles
-8%,Cc1sc(N/N=C/c2ccco2)nc1-c1ccccc1
19%,CCCN(CCC)c1ccc(/C=C/c2ccc3cc(OCC)ccc3n2)cc1
5%,Cc1cccc(-n2c(=O)c3c(C)c(C)sc3n(CC(N)=O)c2=O)c1
13%,COc1ccccc1CNC(=O)CN1C(=O)c2cccnc2Oc2ccccc21
?,CCOC(=O)C1=NOC(COc2ccccc2C=O)C1 (stereo unspecified)
-22%,COc1ccc(C(=O)NCCS(=O)(=O)N(C)C2CCCCC2)cc1
6%,COC(=O)c1ccc(CSc2nc3c([nH]c4ccccc43)c(=O)n2-c2cccc(Cl)c2)o1
12%,CCOC(=O)c1sc(NC(=O)Nc2ccccc2)cc1C
-14%,CCOC(=O)C1=C(C)NC(=O)NC1c1ccc(-c2ccc(Cl)cc2)o1 (stereo unspecified)
7%,COCc1c(C(=O)N/N=C(\C)c2ccc(Cl)s2)nnn1-c1nonc1N
-9%,Cc1nn(C)c(C)c1S(=O)(=O)N(CC(=O)Nc1ccc(F)cc1F)c1ccc(C(C)C)cc1
9%,Cc1ccccc1OCc1nnc(SCC(=O)Nc2ccc3c(c2)oc2ccccc23)n1C
-15%,C[C@H](CO)N1C[C@H](C)[C@@H](CN(C)Cc2ccc(-c3ccccc3)cc2)Oc2c(NS(=O)(=O)c3ccccc3)cccc2C1=O
2%,COc1ccccc1CCNC(=O)C(=O)NCC(c1cccnc1)N1CCN(c2ccccc2)CC1 (stereo unspecified)
8%,O=C(Nc1ccc(F)cc1)Nc1cccc(Br)c1

(listing goes on)
VDR inhibitor,smiles
-13%,Cc1cc(C)c(C#N)c(N)n1
?,c1cc(CNc2ccc(N3CCOCC3)cc2)ccn1
-21%,COc1ccccc1CC(=O)Nc1cccc2ccccc12
3%,CCC(=O)Nc1nc(-c2ccc3c(c2)CC(C)N3S(C)(=O)=O)cs1 (stereo unspecified)
-1%,CCOc1ccc(-c2noc(CCC(=O)NCCc3ccccc3)n2)cc1OC

Screening results (PubChem BioAssay)
